Assay outcomes from PubChem.
CDC25B-CDK2 inh = human CDC25B-CDK2/CyclinA binding inhibition | P30305+P24941 | HTRF CDC25B-CDK2/CyclinA binding, anti-His/anti-Flag; stronger effect = higher value | z-score (no concentration beside the values) | 0.72% of 94,000 active | AID 1259370;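 further: score is relative to mean and SD of negative controls; strong numbers were not always called active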
TAR Tat displ = HIV-1 TAR-Tat binding disruption | HIV-1 TAR RNA, Tat peptide displacement FRET; stronger effect = higher value | z-score (no concentration beside the values) | 0.6% of 100,000 active;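 further: score is relative to mean and SD of negative controls; some compounds called inactive have numbers as strong as hits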
* = called active by the depositor; / = not tested or not shown.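 How the source made its calls: active means z-score from 3 up in half or more of its runs; inactive means the rest.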

SMILES	CDC25B-CDK2 inh	TAR Tat displ
COc1ccc(C=Nc2cccc(NC(=O)c3ccccc3O)c2)cc1	-1.25	/
COc1ccc(C=NCCc2cccs2)c(O)c1	-2.19	/
O=c1c2cccnc2n(Cc2cc(=O)n3ccccc3n2)c(=O)n1CCc1ccccc1	-1.69	1.23
CC(=O)Nc1ccc(S(=O)(=O)Nc2ccc3c(c2)oc(=O)n3C)cc1	/	0
CC(=O)N1N=C(c2ccc(C(C)(C)C)cc2)OC1(C)C	-0.6	/
Cc1cn2c(=O)c(S(=O)(=O)NCCN3CCN(c4ccccc4F)CC3)c(C)nc2s1	/	-2.28
Cc1ccc(-c2nc3ccccc3o2)cc1NC(=O)COc1c(F)c(F)c(C(F)(F)F)c(F)c1F	-2.16	/
COCCCNC(=O)c1cc(Cl)c(NC(=O)C2=CSCCO2)cc1OC	/	1.12
COc1ccc(-c2nc(CSc3nc4ccncc4[nH]3)c(C)o2)cc1	-1.21	0.26
CCOc1ccc(Cl)cc1S(=O)(=O)n1cc(C)nc1CC	-0.84	2.13
C1=CC2C=CC1c1ccccc12	-1.89	/
CCOc1ccc(/C=C/c2nc(C#N)c(NCC3CCCO3)o2)cc1 (stereo not drawn)	-3.15	-0.38

Part of the list above in a different format:
Value order – CDC25B-CDK2 inh | TAR Tat displ
> CC(=O)Nc1ccc(S(=O)(=O)Nc2ccc3c(c2)oc(=O)n3C)cc1
→ / | 0
> CC(=O)N1N=C(c2ccc(C(C)(C)C)cc2)OC1(C)C
→ -0.6 | /

The list goes on.
SMILES	CDC25B-CDK2 inh	TAR Tat displ
Clc1ccc(-c2noc3ncnc(N4CCN(c5ccccn5)CC4)c23)cc1	-1.01	0.59
CCOC(=O)Nc1ccc(Sc2cc(CC)nc3ncnn23)cc1	/	0.62
CCc1nnc2c(NCCN3CCN(c4cccc(Cl)c4)CC3)nc3ccccc3n12	/	-1.07
C=Cc1ccc(CSc2nc3ccncc3[nH]2)cc1	0.76	0.11
COc1ccc(/C(O)=C2\C(=O)C(=O)OC23C(=O)c2ccccc2C3=O)cc1	-0.51	/
CCn1nc(-c2ccccc2C)nc2c(=O)n(C)c(=O)nc1-2	-0.7	2.01
Cc1ccc(Cl)cc1NC(=O)Nc1nc2ccc(S(C)(=O)=O)cc2s1	0.66	1.35
O=C1C(C2=NC(c3ccccn3)C3C(=O)N(c4ccc(Cl)cc4)C(=O)C23)=C(O)c2ccccc21 (stereo not drawn)	-1.43	/
Cc1ccc2c(c1)CCCN2C(=O)CC(=O)N1CCCc2cc(C)ccc21	-1	/
CC(=O)Oc1cccc(C2OC(c3ccc(Br)cc3)=NN2C(C)=O)c1OC(C)=O (stereo not drawn)	/	1.36
N#CC1=C2N=C(N)c3ccccc3N2C2=C(C(=O)CCC2)C1c1ccccc1F (stereo not drawn)	17.9*	-5.18
O=C(NCCC1=CCCCC1)c1nc(-n2cnnc2)ccc1Br	/	1.02
Cc1nn(CCCC(=O)N2CCC(C)CC2)c(=O)c2c1sc1ccccc12	-1.04	-0.29
O=C(NCc1ccccn1)c1[nH]nc2c1COc1ccccc1-2	/	0.37
CCOc1ccc(CN=C2NS(=O)(=O)C(c3ccc(C(C)C)cc3)=C2C)cc1OC	-10	0.02
CCC(=O)Nc1nc2cc(NS(=O)(=O)CC)ccc2s1	/	2.23
O=S(=O)(c1cccs1)N1CCC(Cc2ccccc2)CC1	-0.21	-0.15
Cc1nc(C)c(CCNS(=O)(=O)c2ccccc2)s1	/	0.72
CS(=O)(=O)c1ccc(CC(=O)O)cc1	0.61	/
CCOc1ccc2nc(-n3nc(C)c4c3NC(=O)CC4c3cn(CC)nc3C)sc2c1 (stereo not drawn)	/	0.34
CCCCS(=O)(=O)N1CCc2cc3cccc(C)c3nc21	0.47	-1.89
Cc1ccnc(NC(=O)c2c3c(nc4ccccc24)C(=O)N(C2CCCCC2)C3)c1	/	0.71
CCC(=O)N1CCc2cc(Br)cc(S(=O)(=O)CCC(=O)Nc3ccc(F)cc3)c21	-2.1	1.98
Cc1[nH]c2ccccc2c1C(=O)C(=O)NC1CCCC1	-1.81	/
O=C(CSc1nnc2c3ccccc3nc(-c3ccccc3)n12)NC1CCCC1	/	1.08
O=S(=O)(c1ccc(F)cc1)n1nc(-c2ccco2)nc1NCc1cccc(Cl)c1	0.06	0.89
CCSc1nc2nc(C)c(CC)c(=O)n2[nH]1	-1.84	-2.57
O=C(NCc1ccco1)C1CCCN(S(=O)(=O)c2ccc3[nH]c(=O)oc3c2)C1 (stereo not drawn)	/	0.23
COCCCNC(=O)Cc1sc(C)nc1-c1cccs1	-1.39	-0.99
COc1ccc(C2CC(=O)C3=C(C2)NC(C)=C(C(=O)OCC(C)C)C3c2ccc(F)cc2)cc1 (stereo not drawn)	0.39	1.4
COc1ccc(NC(=O)N2CCCC2c2cccs2)cc1OC (stereo not drawn)	-2.25	2.21
O=C1COc2ccc(S(=O)(=O)CCC(=O)N3CCN(c4ccccc4)CC3)cc2N1	/	2.33
Fc1cc(F)cc(-c2noc3ncnc(NCCCN4CCc5ccccc5C4)c23)c1	/	-0.11
O=C1c2ccncc2C(=O)N1c1ccccc1Br	/	1.88
C/C=C(\C)C(=O)OC1[C@@H]2C=C3C(CC[C@]4(C)C3CC(=O)O[C@H]4c3ccoc3)C(C)(C2=O)[C@@H](C(O)C(=O)OC)C1(C)C (stereo partly drawn)	/	1.36
C=C(C)Cn1c(C2CC(=O)N(c3ccc(OCC)cc3)C2)nc2ccccc21 (stereo not drawn)	-0.19	2.84
CN(C)CCN(Cc1ccco1)C(=O)c1oc2ccccc2c1NC(=O)c1ccc(F)cc1	/	0.24
O=C(CSc1nc2c(Cl)cc(Cl)cc2s1)Nc1ccc(Cl)cc1	-2.08	/
c1cc(-c2nnc3sc(-c4ccc5c(c4)OCO5)nn23)ccn1	-1.32	1.23
CCOC(=O)C1CCN(S(=O)(=O)c2ccc3[nH]c4c(c3c2)CCCCC4)CC1	/	1.88
COc1ccc(C(=O)OCc2cc(=O)n3c(-c4ccccc4)csc3n2)cc1OC	/	-1.65
COc1ccc(OC)c(NC(=O)CSc2ccc(-c3sc(C)nc3C)nn2)c1	/	1.31
Cc1cccc(Cn2c(CCCO)nc3ccccc32)c1	-0.93	1.54
Cc1ccc(C2=NS(=O)(=O)N(C)C(C(=O)NCc3ccc4c(c3)OCO4)=C2)cc1	-0.49	2.28
CCOC(=O)C(=O)Nc1c(C#N)oc2ccccc12	-1.27	0.87
CC(=O)N1c2ccc(S(=O)(=O)N(C)CC(=O)NCc3ccccn3)cc2CC1C (stereo not drawn)	/	-0.77
S=c1[nH]cc(-c2ccc(Br)cc2)[nH]1	-0.91	/
CCn1c(CC2C(=O)N(C)c3ccc(Br)cc32)nc2ccccc2c1=O (stereo not drawn)	-2.52	1.79
Clc1ccc(-n2nnc(/C=C/C=C/N3CCOCC3)n2)cc1	-0.76	/
COc1ccc(N(C)C(=O)c2cc3c(s2)-c2ccccc2OC3)c(OC)c1	-1.24	2.07
CN(C)C=Nc1cc(C(C)(C)C)on1	-1.62	/
c1ccc(C(c2ccccc2)N2CCN(c3ncnc4nc[nH]c34)CC2)cc1	0.69	0.87
CC1CCN(CC2CCN(C(=O)Nc3ccc(Br)cc3F)CC2)CC1	/	1.67
Cc1ccc(S(=O)(=O)c2cnc3ccc(Cl)cc3c2N2CCN(C)CC2)cc1	-1.09	-1.48
CCn1c(-c2ccccc2Cl)nc2ccccc21	1.59	-0.27
Cc1ccc(CCNc2ncnc3c2nc2n3CCCC2)cc1	/	1.03
O=C1C(=O)N2C(=C1C(=O)N1CCCCC1)c1ccccc1CC21CCCC1	-0.27	-0.17
O=C(c1cc2ccc3cccnc3c2[nH]1)N1CCCC1	/	1.46
COc1ccc2cc3c(nc2c1)N(S(=O)(=O)c1ccc(C(C)(C)C)cc1)CC3	-2.06	-3.52
O=C1CC(c2ccc(Cl)cc2)CC2=C1C(c1cccnc1)n1c(nc3ccccc31)N2 (stereo not drawn)	-2.19	-1.73
New compounds follow:
SMILES	CDC25B-CDK2 inh	TAR Tat displ
CCCc1nnc(NC(=O)Cn2c(=O)sc3ccccc32)s1	-0.5	2.81
CC1CC(CC(C)C(=O)Nc2nncs2)C(=O)O1 (stereo not drawn)	-1.54	/
O=C1c2cccc3cccc(c23)N1Cc1c(O)ccc2ccccc12	-1.31	0.12
O=C(CSc1c2c(nc3cc(Cl)ccc13)CCCC2)N1CCN(c2ccccc2)CC1	-2.24	/
Cc1ccc(C(=O)Nc2cnc3sc4c(n3c2=O)CCC(C(C)(C)C)C4)cc1 (stereo not drawn)	0.92	0.3
CCCCCCN1CC(O)=C(c2nc3ccccc3[nH]2)C1=N	1.83	1.3
CC(C)(C)C(=O)OCCn1c(=O)c2cc3c(=O)n(CCOC(=O)C(C)(C)C)c(=O)c3cc2c1=O	-0.73	/
Cc1[nH]c2ccccc2c1C(c1ccccn1)N1CCN(c2ccccc2)CC1 (stereo not drawn)	-0.83	/
CCN(Cc1nc(-c2ccc(C)cc2)no1)S(=O)(=O)c1ccc(F)cc1	0.23	1
CCCNC(=O)c1cnn2c3c(cnc12)CC(C)CC3 (stereo not drawn)	/	0.39
Fc1ccccc1N1CCN(c2ncnc3c2nc2n3CCCCC2)CC1	/	0.94
COC(=O)CN1C(=O)CSc2ccc(S(=O)(=O)Nc3cccnc3)cc21	/	0.45

Reformatted with two lines to a compound: 4 of the compounds above.
Under each structure: CDC25B-CDK2 inh	TAR Tat displ
CCCCCCN1CC(O)=C(c2nc3ccccc3[nH]2)C1=N
  1.83	1.3
CC(C)(C)C(=O)OCCn1c(=O)c2cc3c(=O)n(CCOC(=O)C(C)(C)C)c(=O)c3cc2c1=O
  -0.73	/
Cc1[nH]c2ccccc2c1C(c1ccccn1)N1CCN(c2ccccc2)CC1 (stereo not drawn)
  -0.83	/
CCN(Cc1nc(-c2ccc(C)cc2)no1)S(=O)(=O)c1ccc(F)cc1
  0.23	1

The list goes on.
SMILES	CDC25B-CDK2 inh	TAR Tat displ
Cc1cc(-c2ccc(S(=O)(=O)Nc3c(C)cccc3C)s2)n[nH]1	/	0.17
CCOc1ccc2nc(Nc3nc(O)cc(=O)[nH]3)nc(C)c2c1	0.93	5.46
COc1ccc(C(=O)CSc2n[nH]c(-c3ccccc3OC)n2)cc1Br	-0.37	0.17
O=C(O)c1cn(CCOc2ccccc2Cl)c2ccccc12	0.98	0.4
CCOC(=O)c1cnc(SCc2ccc(Cl)cc2)nc1C(F)(F)F	-1.57	/
Cc1ccc(N2C(=O)C3C(c4ccccc4)OC4(C(=O)c5ccccc5C4=O)C3C2=O)cc1Cl (stereo not drawn)	-0.78	-0.3
O=C(CC1Sc2ccccc2NC1=O)Nc1ccc(N2CCOCC2)cc1 (stereo not drawn)	-1.42	2.88
Cc1nc2sccn2c(=O)c1S(=O)(=O)N1CCN(c2ccc(F)cc2)CC1	/	-1.38
C=CCOC(=O)c1sc(N2C(=O)c3oc4ccc(F)cc4c(=O)c3C2c2ccc(O)cc2)nc1C (stereo not drawn)	-1.56	0.97
CCCCCOC(=O)C1=C(C)NC2=C(C(=O)CC(C)(C)C2)C1c1ccc(O)c(OCC)c1 (stereo not drawn)	0.23	0.05
COc1cc2nc(-c3cccc(C)c3)oc(=O)c2cc1OC	-1.95	0.21
CN(c1ccccc1)c1ncnc2c1cnn2C	/	1.17
O=C(O)c1nccnc1C(=O)Nc1ccc(Br)cc1F	-2.71	-0.04
Cc1ccc(S(=O)(=O)Nc2cc(-c3cn4ccccc4n3)ccc2C)cc1C	-0.43	0.48
Cc1nc(N2CCCC2)c2c(C(=O)Nc3ccccc3)c(C)oc2n1	/	-0.02
Cn1cnc(S(N)(=O)=O)c1	-1.1	/
CN1C2=NCCN2C(=O)c2ccccc21	-2.2	/
N=C(N)SCc1cc2ccccc2o1	-1.61	/
O=C(O)CC1(CC(=O)Nc2ccc(N3CCOCC3)c(Cl)c2)CCCCC1	-0.8	/
CS(=O)(=O)N1CCCc2ccc(NS(=O)(=O)c3cc(F)ccc3F)cc21	/	3.52
O=C(OCc1cc(=O)n2ccsc2n1)c1ccc(NS(=O)(=O)c2ccccc2)cc1	/	2.55
CCOc1c(N2CCCc3ccccc32)c(=O)c1=O	/	-0.23
CC(NC(=O)C1CCN(C(=O)c2cc3sccc3n2C)CC1)C12CC3CC(CC(C3)C1)C2 (stereo not drawn)	-1.45	/
Cc1ccc(O)c(C(CCN(C(C)C)C(C)C)c2ccccc2)c1 (stereo not drawn)	/	-1.97

Among those listed so far, four contain a COOH group:
SMILES	CDC25B-CDK2 inh	TAR Tat displ
CS(=O)(=O)c1ccc(CC(=O)O)cc1	0.61	/
O=C(O)c1cn(CCOc2ccccc2Cl)c2ccccc12	0.98	0.4
O=C(O)c1nccnc1C(=O)Nc1ccc(Br)cc1F	-2.71	-0.04
O=C(O)CC1(CC(=O)Nc2ccc(N3CCOCC3)c(Cl)c2)CCCCC1	-0.8	/

Going on with the list:
SMILES	CDC25B-CDK2 inh	TAR Tat displ
CCOC(=O)c1c[nH]c2c1c(=O)oc1ccccc12	-6.74	-4.96
CCN(CC)CC(O)COc1cc(C(F)(F)F)ccn1 (stereo not drawn)	-0.89	/
COc1ccc(S(=O)(=O)NCCc2csc(-c3ccc(F)cc3)n2)cc1F	/	1.16
CCc1cc2c3c([nH]c2cc1S(=O)(=O)NCCCOC(C)C)CCCC3=O	/	0.74
O=S1(=O)C[C@H](NCCC2=CCCCC2)[C@@H](S(=O)(=O)c2ccc(Cl)cc2)C1	-0.24	1.36
COc1ccc(-c2c(C(F)(F)F)nn(C)c2NC(C)=O)cc1	1.13	/
Cc1ccc(S(=O)(=O)Cc2csc(N3CCOCC3)n2)cc1	-1.06	/
CCCCCOC(=O)C1=C(C)NC2=C(C(=O)CCC2)C1c1cc(Cl)c(O)c(OC)c1 (stereo not drawn)	-0.16	0.11
O=C1CSc2ccc(S(=O)(=O)N3CCOCC3)cc2N1Cc1c(F)cccc1Cl	/	-2.68
O=C(O)c1cn[nH]c1-c1ccc(F)cc1	/	0.38
